Source: PubChem
TRPML1 agonist = human mucolipin-1 channel agonism; actives 0.12% (n = 410,000); Q9GZU1; AID 624414; activation, % (test concentration not listed); TRPML1-expressing cells, Ca2+ dye fluorescence, FDSS; host cell line not named in the record; reference of the full effect not given here; in the data active = activation above about 50%; inconclusive = about 30% to 50%; inactive = below about 30%; further: 0% is about no effect; the text of the record puts the active cut at 80%
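Agonist activity was taken from a 110 s kinetic Ca2+ dye read on the FDSS after pinning compounds onto TRPML1-DL cells. The cells were seeded at 1,500/well with Tet inducer, incubated about 16 h, then dye-loaded at room temperature.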
D2 ag = human D2 receptor agonism in beta-arrestin assay. P14416. actives 0.084% (n = 360,000). activation, % (concentration not given with the values). DiscoveRx PathHunter D2 beta-arrestin, luminescence, 90 min; 100% = 57 uM dopamine signal; in the data active = activation above about 40%; inconclusive = about 15% to 40%; inactive = below about 15%; further: compound concentration not given in the record; the text of the record calls up to 30% inactive
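DiscoveRx PathHunter D2 beta-arrestin cells (2,100/well) attached overnight, then compound-stimulated 90 min at 37 C in HBSS/10 mM HEPES/0.1% Tween-20 buffer; beta-galactosidase complementation read by luminescence after 1 h at ambient temperature. Dopamine 57 uM final (EC100) as control.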
PINK1 modulator = changes PINK1 expression. Potency, µM (titrated, usually from 76.6 µM), for inactives: at the highest dose activation (PINK1 increase), usual class: activators. PINK1 immunofluorescence, high-content cytometry, 24 h. actives 0.2% (n = 410,000); active = well fitted activation curve with a large enough effect; inconclusive = small, poorly fitted or top-dose-only effect; inactive = flat fitted curve, though single readings scatter; cell line not stated here;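 further: potency means the concentration at half of the fitted maximal effect; % of control where 0% means no effect; nearly all actives have a fitted effect of over 65% in size; a mitochondrial uncoupler was the plate control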
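Measures PINK1 amount and localization on or inside mitochondria by immunofluorescence. Stable cells get compounds at 5 concentrations for 24 hours before fixation and staining; CCCP controls included.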
CtBP-E1A inh = inhibitors of CtBP/E1A interaction; AlphaScreen GST-E1A/His-CtBP binding, 1536-well; stronger effect = lower value; control for the full effect not named in the record; actives 0.49% (n = 340,000); activity change, % (concentration not given with the values); in the data active means activity change below about -65%; inconclusive means about -30% to -65%; inactive means above about -30%; further: on the % scale 0 is the no-effect control and ±100 the full control effect
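Homogeneous bead-based format: GST-tagged E1A captured on glutathione donor beads, His-tagged CtBP on nickel acceptor beads; compounds precede bead addition by 2 h at 37 °C.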
Six1-Eya2 inh = inhibitors of human Six1/Eya2 interaction | AlphaScreen GST-Six1/His-Eya2 binding, biochemical; stronger effect = lower value; control for the full effect not named in the record | activity change, % (test concentration not listed) | Q15475+O00167 | actives 0.56% (n = 360,000); in the data active = activity change below about -65%; inconclusive = about -30% to -65%; inactive = above about -30%; further: on the % scale 0 is the no-effect control and ±100 the full control effect; compound concentration not given in the record
Target sequence (O00167 whole entry, looked up): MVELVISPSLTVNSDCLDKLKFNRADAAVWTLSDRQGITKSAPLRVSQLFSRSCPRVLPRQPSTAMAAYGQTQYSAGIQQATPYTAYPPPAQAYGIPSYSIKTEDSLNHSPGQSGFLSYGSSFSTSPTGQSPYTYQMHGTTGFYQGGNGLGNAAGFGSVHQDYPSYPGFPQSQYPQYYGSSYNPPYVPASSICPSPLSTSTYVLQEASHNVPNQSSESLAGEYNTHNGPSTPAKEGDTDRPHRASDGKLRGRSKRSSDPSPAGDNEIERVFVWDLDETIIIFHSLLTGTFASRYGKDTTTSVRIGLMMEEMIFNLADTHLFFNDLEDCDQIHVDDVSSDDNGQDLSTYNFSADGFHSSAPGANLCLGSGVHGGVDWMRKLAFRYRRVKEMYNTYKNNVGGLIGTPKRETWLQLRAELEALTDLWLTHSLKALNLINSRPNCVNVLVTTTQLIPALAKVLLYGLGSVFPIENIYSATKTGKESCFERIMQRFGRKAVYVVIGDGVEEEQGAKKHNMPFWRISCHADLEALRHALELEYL
Target sequence (Q15475 whole entry, looked up): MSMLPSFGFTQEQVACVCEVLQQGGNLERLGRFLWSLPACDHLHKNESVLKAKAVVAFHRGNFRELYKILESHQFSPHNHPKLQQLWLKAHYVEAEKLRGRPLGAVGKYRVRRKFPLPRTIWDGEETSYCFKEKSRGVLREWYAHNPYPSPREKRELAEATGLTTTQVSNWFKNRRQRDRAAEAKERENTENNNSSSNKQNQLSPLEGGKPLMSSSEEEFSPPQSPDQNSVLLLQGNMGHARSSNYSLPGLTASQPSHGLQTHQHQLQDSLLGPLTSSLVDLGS
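Homogeneous AlphaScreen proximity assay pairing GST-Six1 with His-tagged Eya2 (added as 5X mix: 250 nM and 500 nM) in 50 mM Tris pH 8.0, 300 mM NaCl, 1 mM TCEP. Glutathione donor and nickel acceptor beads; 1 h, 37 °C, dark.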
D2 potentiator = potentiates the human D2 dopamine receptor allosterically. potentiation, % (test concentration not listed). actives 0.23% (n = 360,000). P14416. AID 624464. DiscoveRx D2 beta-arrestin cells, luminescence, 90 min; 100% = 57 uM dopamine signal; active = potentiation of 50% or more; inconclusive = 30% to 50%; inactive = 30% or less;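 further: compound concentration not given in the record; tested on top of an EC20 dose of dopamine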
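PathHunter D2 cells, attached overnight at 37 deg C, received compound in DMSO plus dopamine at EC20 (50 nM final) for 90 min at 37 deg C. Beta-arrestin recruitment was read as luminescence after 1 h with detection reagent at ambient temperature.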
Numbers without * were called inactive; ? = inconclusive; / = not tested or not shown; & = joins results of further samples; [ ] = another dose, or the depositor's remark.

Sample of the layout (5 entries):
1: c1ccc2c(CN3CCN(C4CCCCC4)CC3)c[nH]c2c1
2: Cc1cccc(NC2=NCCCS2)c1C
3: CC(C(=O)N1CCC2(CC1)OCCO2)C1Sc2ccccc2NC1=O (stereo unspecified)
4: CC(Cc1ccccc1)NC(=O)Cc1ccc(N(C)C)cc1 (stereo unspecified)
5: CN1CCN(c2ccc([N+](=O)[O-])c(NCc3ccco3)c2)CC1
Compound | 1 | 2 | 3 | 4 | 5
TRPML1 agonist | 0.4 | 0.6 | 0.3 | -0.5 | -0.7
D2 ag | -0.6 | 1.9 | -2.1 | 2.5 | -1.9
PINK1 modulator | -0.5% | / | -2.3% | -1.7% | -0.7%
CtBP-E1A inh | -13 | -3 | 0 | 0 | -11
Six1-Eya2 inh | -17 | 1 | -1 | 1 | -13
D2 potentiator | / | -6 | -10 | -12 | -43

The listing, from the first entry:
1: c1ccc2c(CN3CCN(C4CCCCC4)CC3)c[nH]c2c1
2: Cc1cccc(NC2=NCCCS2)c1C
3: CC(C(=O)N1CCC2(CC1)OCCO2)C1Sc2ccccc2NC1=O (stereo unspecified)
4: CC(Cc1ccccc1)NC(=O)Cc1ccc(N(C)C)cc1 (stereo unspecified)
5: CN1CCN(c2ccc([N+](=O)[O-])c(NCc3ccco3)c2)CC1
6: CN(C)C1=C(C#N)C(c2ccccc2)=NP(N(C)C)(N(C)C)=N1
7: C=CCn1c(O)c(C(C)=NCc2ccc3c(c2)OCO3)c(=O)[nH]c1=O
8: CN1C(=O)C(=Cc2ccccc2OCc2ccccc2Cl)C(=O)N(C)C1=O
Compound | 1 | 2 | 3 | 4 | 5 | 6 | 7 | 8
TRPML1 agonist | 0.4 | 0.6 | 0.3 | -0.5 | -0.7 | -0.2 | 1.6 | 0.7
D2 ag | -0.6 | 1.9 | -2.1 | 2.5 | -1.9 | -1.9 | -2.3 | -2.5
PINK1 modulator | -0.5% | / | -2.3% | -1.7% | -0.7% | ? | -0.7% | ?
CtBP-E1A inh | -13 | -3 | 0 | 0 | -11 | 10 | -1 | 10
Six1-Eya2 inh | -17 | 1 | -1 | 1 | -13 | 2 | 1 | 20
D2 potentiator | / | -6 | -10 | -12 | -43 | -17 | -5 | -11

9: CCOC(=O)[C@]12Cc3cc(Cl)ccc3[C@H]1N(Cc1ccccc1)C(=O)c1ccccc12
10: COC(=O)C1=Nc2ccccc2/C1=C\c1c(O)n(C)c(=O)n(C)c1=O
11: CC1(C)CN=C(Nc2nc3ccccc3s2)S1
12: CCOC(=O)[C@]12Cc3cc(OC)c(OC)cc3[C@H]1N(Cc1ccccc1)C(=O)c1ccccc12
13: COC(=O)C1=C(c2cccc(Cl)c2)C[C@@H]2CC[C@H]1N2C(=O)NCC1CC1
14: O=C(Oc1ccc([N+](=O)[O-])cc1)N1CCC(N2CCCCC2)CC1
15: Oc1ccc2c3c1OC1c4oc5ccccc5c4C[C@@]4(O)[C@@H](C2)N(CC2CC2)CC[C@]314 (stereo partly specified)
16: COc1ccc(C2CN(C)CC2C(=O)c2ccc(F)cc2)cc1Cl (stereo unspecified)
Compound | 9 | 10 | 11 | 12 | 13 | 14 | 15 | 16
TRPML1 agonist | 2.3&0.9 | 2.3 | 0.1 | 0.7&-0.3 | 0.8 | 1.5 | 1.6 | 0.0
D2 ag | -3.5 | -2.7 | -2.7 | -4.2 | -1.5 | -1.7 | / | -0.2
PINK1 modulator | -0.3% | -0.7% | 1.0% | -0.3% | 0.4% | -0.6% | -0.5% | 2.1%
CtBP-E1A inh | 0 | 2 | 1 | -4 | -22 | 2 | -3 | -19
Six1-Eya2 inh | -7 | -4 | 5 | -5 | 6 | 3 | 2 | -10
D2 potentiator | -6 | -6 | 0 | 0 | -11 | -8 | -8 | -13

An excerpt from above, reduced to D2 ag and CtBP-E1A inh:
cpd | SMILES | D2 ag | CtBP-E1A inh
10 | COC(=O)C1=Nc2ccccc2/C1=C\c1c(O)n(C)c(=O)n(C)c1=O | -2.7 | 2
11 | CC1(C)CN=C(Nc2nc3ccccc3s2)S1 | -2.7 | 1

(more compounds)
17: O=[N+]([O-])c1ccc(N2CCNCC2)c(Cl)c1
18: COc1ccc(CNCCc2ccc(Cl)cc2)c(OC)c1OC
19: CCNc1nc(NC(C)(C)C)nc(SC)n1
20: CNC(=O)Oc1ccc(N(C)C)cc1C(C)C
21: O=C1CN=C(c2ccccc2)c2ccccc2N1
22: O=c1[nH]c(=O)n(Cc2ccco2)c(O)c1C=NC1CC1
23: CC(=O)N1CN2CN(C(C)=O)CC(C(=O)c3ccccc3)(C2)C1
24: Nc1ccc2c(c1)oc1ccccc12
Compound | 17 | 18 | 19 | 20 | 21 | 22 | 23 | 24
TRPML1 agonist | -1.4 | 0.0 | -0.7 | -0.4 | 0.4 | -0.2 | -0.7 | -0.7
D2 ag | -2.1 | -5.4 | -0.4 | 5.0 | 6.0 | -0.9 | -4.7 | -4.0
PINK1 modulator | 0.5% | 2.2% | 4.7% | 0.9% | 8.2% | -1.1% | 0.3% | 7.7%
CtBP-E1A inh | -1 | -3 | 6 | / | 10 | -2 | 0 | 3
Six1-Eya2 inh | 1 | -1 | -2 | -2 | 0 | 2 | 0 | -8
D2 potentiator | -7 | -5 | 9 | -5 | -10 | 3 | -8 | -25

25: CCCCn1c(O)c(C=NCc2ccc3c(c2)OCO3)c(=O)[nH]c1=O
26: COc1ccc(CCn2c(O)c(C=Nc3ccc(NC(C)=O)cc3)c(=O)[nH]c2=O)cc1OC
27: COc1cc(C2SCC(=O)Nc3c2c(=O)[nH]n3C2CCCCCC2)cc(OC)c1OC (stereo unspecified)
28: CC12C=CC(=O)C=C1CCC1C2C(O)CC2(C)C1CCC2(C)O (stereo unspecified)
29: COC(=O)C1=C(c2ccc(F)cc2OCc2ccccc2)C[C@@H]2CC[C@H]1N2C(=O)NCc1ccccc1
30: CC[N+](C)(CC)CCCOC(=O)C(O)(c1ccccc1)C1CCCCC1 (stereo unspecified)
31: CC1CCN(CC#CCOc2ccc(Cl)cc2)CC1
32: O=C1C2CCCN2C(c2cccnc2)N1c1ccc(Cl)c(Cl)c1 (stereo unspecified)
Compound | 25 | 26 | 27 | 28 | 29 | 30 | 31 | 32
TRPML1 agonist | -0.4 | 1.1 | -0.8 | 0.1 | -0.9 | -0.6 | 0.6 | -0.3
D2 ag | -1.9 | 1.5 | -5.1 | 2.4 | 0.4 | -0.4 | -2.3 | 1.0
PINK1 modulator | 4.8% | 4.4% | -3.2% | 1.5% | 2.4% | -1.4% | 5.6% | -2.5%
CtBP-E1A inh | 12 | 14 | -3 | 3 | 0 | 6 | 14 | -7
Six1-Eya2 inh | 0 | 11 | 0 | 4 | -7 | 5 | 0 | 10
D2 potentiator | 2 | 0 | -13 | 3 | -43 | 3 | -2 | -12

33: O=[N+]([O-])[N-][n+]1cnn(Cc2ccc(Cl)cc2)c1
34: CCOC(=O)[C@]12Cc3cc(Cl)ccc3[C@H]1N(C)C(=O)c1ccccc12
35: CC(=O)O[C@@]12CO[C@@H]1C[C@H](OC1OCC(O)C(O)C1O)[C@@]1(C)C(=O)[C@H](O)C3=C(C)[C@@H](OC(=O)[C@H](O)[C@@H](NC(=O)c4ccccc4)c4ccccc4)C[C@@](O)([C@@H](OC(=O)c4ccccc4)C12)C3(C)C (stereo partly specified)
36: O=C(Cn1c(=O)n(CC2CS2)c2ccccc21)N1CCCCC1 (stereo unspecified)
37: CCCCCCC(=O)c1c(O)n(-c2ccccc2OC)c(=O)[nH]c1=O
38: COC(=O)C1=C(c2cccc(OCc3ccccc3)c2)C[C@@H]2CC[C@H]1N2C(=O)NCCCOC(C)C
39: COc1ccc(CN2CCN(C(=O)COc3cccc(C)c3)CC2)c(OC)c1
40: CCn1c(O)c(/C=N/NC(=O)c2ccccc2)c(=O)[nH]c1=S
Compound | 33 | 34 | 35 | 36 | 37 | 38 | 39 | 40
TRPML1 agonist | 1.1 | -1.3 | / | -0.3 | 0.6 | 0.4 | -1.6 | 3.9
D2 ag | 1.8 | / | 8.2 | -4.3 | -1.6 | -1.1 | 4.1 | -6.7
PINK1 modulator | -3.0% | -0.5% | 9.5% | -1.2% | -0.8% | 3.1% | -0.8% | 0.1%
CtBP-E1A inh | 0 | 0 | 0 | -5 | / | -1 | -14 | -91*
Six1-Eya2 inh | 7 | -3 | -10 | -5 | 1 | -19 | -17 | -93*
D2 potentiator | -3 | / | 5 | 1 | -6 | -9 | -16 | -8

41: Cc1ccc(CS(=O)(=O)Cc2ccc(C(=O)N3CCC4(CC3)OCCO4)o2)cc1
42: O=c1oc2ccccc2c(O)c1C(c1ccccn1)c1c(O)c2ccccc2oc1=O
43: O=C(Cc1ccccc1)N1CCN(CC2CC=CCC2)CC1 (stereo unspecified)
44: CCC(c1nnnn1C1CCCC1)N1CCC2(CC1)C(=O)NCN2c1ccccc1 (stereo unspecified)
45: Cc1ccc(Cn2nnnc2CN2CCC(n3nnc4cc(C(F)(F)F)ccc43)CC2)cc1
46: C[C@]12CC[C@H](O)CC1=CC[C@@H]1[C@@H]2CC[C@]2(C)C(=O)CC[C@@H]12
47: CC1(CCO)C(=O)NC(=S)NC1=O
48: O=S1c2ccccc2-c2ccccc21
Compound | 41 | 42 | 43 | 44 | 45 | 46 | 47 | 48
TRPML1 agonist | -0.5 | -0.6 | 0.1 | 0.1 | 3.2 | -0.4 | 0.3 | 0.6
D2 ag | -0.9 | -3.6 | -1.5 | -6.7 | 2.3 | 5.2 | -3.9 | -1.0
PINK1 modulator | / | 0.1% | -2.6% | 0.6% | 1.3% | 1.5% | -5.3% | 0.5%
CtBP-E1A inh | 10 | 2 | 6 | -8 | -2 | -3 | 18 | 1
Six1-Eya2 inh | 2 | 7 | 3 | 14 | 6 | -1 | -9 | 7
D2 potentiator | -13 | -4 | -12 | -13 | -11 | 2 | -7 | 0

49: COc1ccc(/C=C2\Oc3cc(OC(=O)N4CCOCC4)ccc3C2=O)c(OC)c1
50: CCOc1cc(CNCCc2ccccc2F)ccc1OC
51: COc1ccc(OCC#CCN2CCC(C)CC2)cc1
52: NP(=O)(OCCCc1ccccc1)c1ccccc1 (stereo unspecified)
53: COc1ccc(C(=O)C(Cc2ccccc2)N(C)C)cc1 (stereo unspecified)
54: CCCNC(=O)N1C2CCC1CC(O)(c1cccnc1)C2 (stereo unspecified)
55: NC(Cc1ccccc1)c1csc(Nc2ccccn2)n1 (stereo unspecified)
56: CC[n+]1c(/C=C/C=C/c2ccc(N(C)C)cc2)sc2ccccc21
57: C#CC1(O)C=CC2C3CCC4=CC(=O)CCC4C3CCC21CC (stereo unspecified)
Compound | 49 | 50 | 51 | 52 | 53 | 54 | 55 | 56 | 57
TRPML1 agonist | 7.6 | -0.3 | -0.5 | -0.7 | 0.5 | -0.4 | 0.6 | 0.0 | /
D2 ag | -6.5 | -1.5 | -0.5 | -4.2 | -2.5 | -3.9 | -2.3 | -5.5 | 0.4
PINK1 modulator | ? | 0.7% | 2.4% | 0.8% | 6.5%[38.3 µM] | -1.2% | 8.1% | -0.1% | 1.9%
CtBP-E1A inh | 3 | / | -25 | 2 | -2 | 0 | -90* | 4 | 5
Six1-Eya2 inh | 13 | 0 | -13 | 6 | -1 | 6 | -86* | 0 | 4
D2 potentiator | -6 | -5 | -17 | -1 | -21 | -9 | -14 | -20 | 7

Only part of the results is shown, so the mix of outcomes need not match the whole.
